NOMO-1 viab: STK33 inhibitor candidate reducing NOMO-1 cell viability; NOMO-1 AML viability, CellTiter-Glo luminescence, 72 h; 37,000 tested, 7.5% active; AID 2330; inhibition, % (concentration not given with the values);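 active means most replicates above 80%; inconclusive means exactly half above 80%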;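 further: wells of about 30 µL received 25 nL stock; 0% = median of vehicle wells and 100% = reference inhibitor level; the first replicate is given; inactives centre near 10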
An asterisk follows results filed as active; u = inconclusive.

SMILES	NOMO-1 viab
C[C@@H]1CN([C@H](C)CO)C(=O)Cc2cc(NC(=O)Cc3ccccc3)ccc2O[C@@H]1CN(C)Cc1ccc(C(F)(F)F)cc1	62.3
C[C@@H]1CN([C@H](C)CO)C(=O)Cc2cc(NC(=O)CCCCCC(=O)Nc3ccccc3N)ccc2O[C@@H]1CN(C)Cc1ccc(-c2ccccc2)cc1	140.6*
CCOC(=O)c1sc2ncn(CC(=O)Nc3ccc(OC)cc3)c(=O)c2c1C	26.0
Cc1ccc(S(=O)(=O)N(C)C[C@H]2Oc3c(NC(=O)Nc4ccc(F)cc4)cccc3C(=O)N([C@H](C)CO)C[C@@H]2C)cc1	21.9
C[C@@H]1CN([C@@H](C)CO)C(=O)c2cccc(NC(=O)C3CCOCC3)c2O[C@@H]1CN(C)Cc1ccc(Oc2ccccc2)cc1	22.0
CSc1nc2ccccc2n1CC(=O)Nc1ccccc1	59.0
C[C@H]1CN([C@@H](C)CO)C(=O)Cc2cc(NC(=O)c3ccncc3)ccc2O[C@@H]1CN(C)Cc1ccc(Oc2ccccc2)cc1	36.7
Cc1ccc(S(=O)(=O)Nc2ccc3c(c2)C(=O)N([C@@H](C)CO)C[C@@H](C)[C@@H](CN(C)C(=O)NC2CCCCC2)O3)cc1	8.9
O=C(O)COc1ccc(Cl)cc1CO	-0.7
Cc1noc(C)c1S(=O)(=O)Nc1ccc2c(c1)C(=O)N([C@H](C)CO)C[C@H](C)[C@@H](CN(C)S(C)(=O)=O)OCCCC[C@@H](C)O2	-4.4
Cc1cc(C)c(C)c(OCC(=O)NCc2ccccn2)c1	9.7
C[C@@H]1CN([C@H](C)CO)C(=O)Cc2cc(NC(=O)NC3CCCCC3)ccc2O[C@@H]1CN(C)S(=O)(=O)c1ccccc1	28.3
C[C@@H]1CN([C@@H](C)CO)C(=O)c2cc(NS(=O)(=O)c3ccc(F)cc3)ccc2O[C@@H]1CN(C)S(=O)(=O)c1ccc(Cl)cc1	4.4
COc1ccc(OC(C)C(=O)Nc2ccc(OC)c(OC)c2)cc1 (configuration not stated)	-22.0
C[C@H](CO)N1C[C@H](C)[C@H](CN(C)Cc2ccccc2)Oc2ccc(NC(=O)Nc3ccccc3)cc2C1=O	13.2
C[C@@H]1CN([C@@H](C)CO)C(=O)c2cccc(NC(=O)C3CCOCC3)c2O[C@@H]1CN(C)Cc1ccc(-c2ccccc2)cc1	-7.6
Cc1ccc(NC(=O)c2sc3ncn(CC(=O)Nc4sc5c(c4C#N)CCC5)c(=O)c3c2C)c(C)c1	40.7
C[C@H]1CN([C@@H](C)CO)C(=O)c2cc(NS(C)(=O)=O)ccc2O[C@H]1CN(C)C(=O)Nc1ccccc1	-2.9
CC(C)NC(=O)N(C)C[C@@H]1Oc2c(cccc2N(C)C)C(=O)N([C@@H](C)CO)C[C@H]1C	4.3
CNC[C@H]1Oc2ccc(NC(=O)NC(C)C)cc2C(=O)N([C@H](C)CO)C[C@@H]1C	-22.3
COc1cc(NC(=O)Cn2nc(C(F)(F)F)c(Cl)c2C)cc([N+](=O)[O-])c1	114.0*
COc1ccccc1NC(=O)c1ccc(CSc2nnnn2-c2ccccc2)cc1	-24.5
C[C@H]1CN([C@@H](C)CO)C(=O)c2cc(NC(=O)Nc3ccc4c(c3)OCO4)ccc2O[C@@H]1CN(C)C(=O)Nc1ccc2c(c1)OCO2	6.5
C[C@H](CO)N1C[C@H](C)[C@@H](CN(C)CC2CCCCC2)Oc2ccc(NS(=O)(=O)c3ccc(Cl)cc3)cc2C1=O	21.3
C[C@H](CO)N1C[C@H](C)[C@@H](CN(C)C(=O)NC2CCCCC2)Oc2ccc(NS(=O)(=O)c3ccc(F)cc3)cc2C1=O	-6.2

Retrieved one by one from above, 7 records:
SMILES	NOMO-1 viab
COc1cc(NC(=O)Cn2nc(C(F)(F)F)c(Cl)c2C)cc([N+](=O)[O-])c1	114.0*
C[C@H](CO)N1C[C@H](C)[C@@H](CN(C)CC2CCCCC2)Oc2ccc(NS(=O)(=O)c3ccc(Cl)cc3)cc2C1=O	21.3
C[C@H](CO)N1C[C@H](C)[C@H](CN(C)Cc2ccccc2)Oc2ccc(NC(=O)Nc3ccccc3)cc2C1=O	13.2
C[C@@H]1CN([C@H](C)CO)C(=O)Cc2cc(NC(=O)CCCCCC(=O)Nc3ccccc3N)ccc2O[C@@H]1CN(C)Cc1ccc(-c2ccccc2)cc1	140.6*
C[C@H]1CN([C@@H](C)CO)C(=O)c2cc(NC(=O)Nc3ccc4c(c3)OCO4)ccc2O[C@@H]1CN(C)C(=O)Nc1ccc2c(c1)OCO2	6.5
C[C@H]1CN([C@@H](C)CO)C(=O)Cc2cc(NC(=O)c3ccncc3)ccc2O[C@@H]1CN(C)Cc1ccc(Oc2ccccc2)cc1	36.7
Cc1noc(C)c1S(=O)(=O)Nc1ccc2c(c1)C(=O)N([C@H](C)CO)C[C@H](C)[C@@H](CN(C)S(C)(=O)=O)OCCCC[C@@H](C)O2	-4.4

Remaining list, next part:
SMILES	NOMO-1 viab
C[C@@H]1CN([C@@H](C)CO)C(=O)Cc2cc(NC(=O)C3CCCCC3)ccc2O[C@@H]1CN(C)C(=O)NC1CCCCC1	-2.5
CCN(CC(=O)Nc1ccc(OC)c(Cl)c1)S(=O)(=O)c1ccc2ccccc2c1	29.5
C[C@@H]1CN([C@H](C)CO)C(=O)c2cc(N(C)C)ccc2O[C@H]1CN(C)Cc1ccncc1	-1.8
CCn1c(SCC(=O)Nc2ccc(F)cc2F)nnc1-c1ccco1	-13.3
COc1cccc(C2CC(c3ccccc3OC)n3nc(N)nc3N2)c1 (configuration not stated)	-11.2
C[C@H]1CN([C@@H](C)CO)C(=O)c2cccc(NC(=O)C3CCCCC3)c2O[C@@H]1CN(C)Cc1ccc(-c2ccccc2)cc1	24.7
C[C@@H]1CCCCO[C@@H](CN(C)S(C)(=O)=O)[C@@H](C)CN([C@H](C)CO)C(=O)c2cc(NS(=O)(=O)c3cccs3)ccc2O1	34.2
Cn1c(CN2CCOCC2)nnc1SCC(=O)N1CCc2ccccc21	-4.0
CC(C)NC(=O)N(C)C[C@@H]1OCCCC[C@@H](C)Oc2ccc(NC(=O)Nc3ccc(F)cc3)cc2C(=O)N([C@H](C)CO)C[C@@H]1C	-5.1
Cc1cc(C(=O)Nc2cccc3c2O[C@@H](CN(C)S(=O)(=O)c2cn(C)cn2)[C@@H](C)CN([C@H](C)CO)C3=O)n(C)n1	7.6
CC(C)(O)CC[C@@H](O)[C@](C)(O)[C@H]1CC[C@@]2(O)C3=CC(=O)[C@@H]4C[C@@H](O)[C@@H](O)C[C@]4(C)C3CC[C@]12C (some centres not stated)	1.5
C[C@@H]1CN([C@H](C)CO)C(=O)c2cccc(NC(=O)Nc3ccc(F)cc3)c2O[C@@H]1CN(C)C(=O)Nc1ccc2c(c1)OCO2	18.6
C[C@@H]1CN([C@@H](C)CO)C(=O)Cc2cc(NS(=O)(=O)c3cn(C)cn3)ccc2O[C@@H]1CN(C)Cc1ccc(C(F)(F)F)cc1	11.1
C[C@H]1CN([C@@H](C)CO)C(=O)c2cc(NS(C)(=O)=O)ccc2O[C@@H]1CN(C)S(=O)(=O)c1cccs1	21.4
Cc1ccc(-c2nnc(SCC(=O)Nc3ccccc3C(C)(C)C)n2C)cc1	-5.4
O=C(Cn1cnc2scc(-c3ccccc3)c2c1=O)Nc1cc(Cl)cc(Cl)c1	18.9
CC12CCC(C(=O)NCCN3CCOCC3)(OC1=O)C2(C)C (configuration not stated)	1.0
C[C@H]1CN([C@@H](C)CO)C(=O)c2cccc(NC(=O)c3ccncc3)c2O[C@@H]1CN(C)CC1CC1	15.9
C[C@H]1CN([C@@H](C)CO)C(=O)c2cc(NC(=O)CCCN(C)C)ccc2O[C@@H]1CN(C)CC1CCCCC1	10.3
Cc1nc(-c2ccccc2)sc1C(=O)C1C(=O)C(=O)N(CCCN2CCOCC2)C1c1cccs1 (configuration not stated)	1.5
C[C@H]1CN([C@@H](C)CO)C(=O)c2cc(NC(=O)NC3CCCCC3)ccc2O[C@@H]1CN(C)C(=O)Nc1cccc2ccccc12	-2.4
COc1ccc(CN(C)C[C@@H]2Oc3ccc(NC(=O)C4CC4)cc3CC(=O)N([C@@H](C)CO)C[C@@H]2C)cc1	-12.0
C[C@H]1CN([C@@H](C)CO)C(=O)Cc2cc(NC(=O)CCC(F)(F)F)ccc2O[C@@H]1CN(C)C(=O)Nc1cccc2ccccc12	-9.1
Cc1ccccc1NC(=O)CSc1nc(N)c(C#N)cc1C#N	-0.5
C[C@@H]1CN([C@@H](C)CO)C(=O)c2cc(NC(=O)c3ccncc3)ccc2O[C@H]1CN(C)C	-3.9
Later entries.
SMILES	NOMO-1 viab
C[C@@H]1CN([C@H](C)CO)C(=O)Cc2cc(NS(=O)(=O)c3cn(C)cn3)ccc2O[C@H]1CN(C)C(=O)Nc1ccccc1	-3.3
COc1ccc(S(=O)(=O)Nc2ccc3c(c2)C(=O)N([C@@H](C)CO)C[C@H](C)[C@H](CN(C)S(C)(=O)=O)O3)cc1	-5.3
Cc1ccc(-c2ccc(OC(=O)c3ccccc3F)cc2)cc1	9.3
C[C@@H]1CCCCO[C@@H](CN(C)S(=O)(=O)c2ccccc2)[C@@H](C)CN([C@H](C)CO)C(=O)c2cc(NC(=O)c3ccccc3)ccc2O1	36.2
O=C(Nc1ccc(OCc2nc3ccccc3s2)cc1)c1ccc(Cl)cc1	18.2
C[C@H]1CN([C@@H](C)CO)C(=O)c2cccc(NC(=O)c3ccncc3)c2O[C@@H]1CN(C)S(=O)(=O)c1ccc(F)cc1	1.6
Nc1nc(N2CCOCC2)ncc1S(=O)(=O)c1ccc(Cl)cc1	-0.1
C[C@@H]1CN([C@@H](C)CO)C(=O)c2cccc(NS(=O)(=O)c3ccc(F)cc3)c2O[C@H]1CN(C)S(=O)(=O)c1ccccc1	19.4
C[C@@H]1CN([C@H](C)CO)C(=O)c2cccc(NC(=O)NC3CCCCC3)c2O[C@@H]1CN(C)C(=O)NC1CCCCC1	15.0
Cc1noc(C)c1S(=O)(=O)Nc1ccc2c(c1)CC(=O)N([C@@H](C)CO)C[C@@H](C)[C@@H](CN(C)Cc1ccc(C(=O)Nc3ccccc3N)cc1)O2	u
O=C1C(=O)N(Cc2cccnc2)C(c2ccccn2)C1C(=O)c1cccs1 (configuration not stated)	47.5
C[C@@H]1CCCCO[C@@H](CN(C)Cc2ccc(C(=O)Nc3ccccc3N)cc2)[C@@H](C)CN([C@H](C)CO)C(=O)c2cc(NC(=O)Cc3ccccc3)ccc2O1	127.0*
CCOC(=O)c1c(-c2ccc(C)o2)csc1NC(=O)CN1C(=O)c2ccccc2C1=O	21.9
Cn1c(SCC(=O)Nc2ccc(Br)cc2)nnc1-c1ccccn1	-13.5
C[C@@H]1CN([C@@H](C)CO)C(=O)c2cc(N(C)C)ccc2O[C@H]1CN(C)Cc1ccc2c(c1)OCO2	-1.2
C[C@@H]1CN([C@H](C)CO)C(=O)c2cc(NC(=O)Nc3cccc4ccccc34)ccc2O[C@@H]1CN(C)Cc1ccc(Oc2ccccc2)cc1	89.1*
C[C@H]1CN([C@@H](C)CO)C(=O)c2cccc(NS(=O)(=O)c3ccc(Cl)cc3)c2O[C@H]1CN(C)S(=O)(=O)c1cn(C)cn1	13.9
COc1ccc(S(=O)(=O)N2CCN(CCO)CC2)cc1-c1nnc2c3ccccc3c(C)nn12	8.7
CCC(C)C1NC(=O)c2c1n(C)c1ccccc1c2=O (configuration not stated)	35.8
CCN1C(=O)/C(=C/C=C2\Sc3ccc(Cl)cc3N2C)SC1=S	5.7
C[C@@H]1CN([C@@H](C)CO)C(=O)c2cccc(NC(=O)c3ccc(-c4nccs4)cc3)c2O[C@H]1CN(C)S(=O)(=O)c1cn(C)cn1	0.1
C[C@@H]1CN([C@@H](C)CO)C(=O)c2cccc(NC(=O)C3CCCCC3)c2O[C@H]1CN(C)S(=O)(=O)c1cn(C)cn1	-4.8
C[C@@H]1CN([C@@H](C)CO)C(=O)c2cc(NC(=O)CCCN(C)C)ccc2O[C@@H]1CN(C)Cc1ccc(Oc2ccccc2)cc1	31.0
Cc1ccccc1NC(=O)CSc1cc(C)c2ccccc2n1	10.5
CCC(=O)Nc1ccc(S(=O)(=O)Nc2nccc(/C=C/c3ccccc3Cl)n2)cc1	4.5
Going on with the list:
SMILES	NOMO-1 viab
Cc1ccc(S(=O)(=O)Nc2cccc3c2O[C@@H](CN(C)S(=O)(=O)c2ccccc2)[C@H](C)CN([C@@H](C)CO)C3=O)cc1	5.2
CCOC(=O)Nc1ccc2c(c1)N(C(=O)CN1CCN(C)CC1)c1ccccc1CC2	16.9
C[C@@H]1CN([C@@H](C)CO)C(=O)c2cc(NC(=O)Nc3ccc(F)cc3)ccc2O[C@H]1CN(C)C(=O)NC1CCCCC1	19.3
Cc1cc(C)nc(SCC(=O)c2cc3ccccc3oc2=O)n1	2.6
COc1ccc(NC(=O)N(C)C[C@H]2Oc3ccc(N(C)C)cc3CC(=O)N([C@@H](C)CO)C[C@H]2C)cc1	-7.3
C[C@H]1CN([C@@H](C)CO)C(=O)c2cc(NS(=O)(=O)c3cn(C)cn3)ccc2O[C@@H]1CN(C)S(=O)(=O)c1ccc(Cl)cc1	16.8
C[C@@H]1CN([C@@H](C)CO)C(=O)c2cc(NC(=O)Cc3ccccc3)ccc2O[C@H]1CN(C)C	-13.0
C[C@@H]1CN([C@@H](C)CO)C(=O)c2cccc(NC(=O)Nc3ccc4c(c3)OCO4)c2O[C@H]1CN(C)C(=O)Nc1ccc2c(c1)OCO2	7.8
COc1ccc(OC)c(NC(=O)CSc2nnc(-c3ccc(F)cc3)n2C)c1	-1.7
FC(F)(F)c1nc2ccc(Cl)cc2[nH]1	120.6*
C[C@H]1CN([C@@H](C)CO)C(=O)c2cc(NS(C)(=O)=O)ccc2O[C@@H]1CN(C)Cc1ccncc1	-17.9
COc1ccc(Cl)cc1N(CC(=O)N1CCN(c2cccc(Cl)c2)CC1)S(C)(=O)=O	17.8
Cc1ccc(S(=O)(=O)N(C)C[C@H]2Oc3ccc(NC(=O)Nc4ccc(F)cc4)cc3CC(=O)N([C@@H](C)CO)C[C@H]2C)cc1	43.5
Cc1ccc(S(=O)(=O)Nc2ccc3c(c2)CC(=O)N([C@@H](C)CO)C[C@H](C)[C@@H](CN(C)Cc2ccc(Cl)c(Cl)c2)O3)cc1	128.3*
C[C@@H]1CN([C@H](C)CO)C(=O)Cc2cc(NS(=O)(=O)c3ccc(Cl)cc3)ccc2O[C@@H]1CN(C)S(C)(=O)=O	10.4

Source: PubChem (Broad Institute)

These rows are one share of the data, so the mix of outcomes need not match the whole.
